# PMP22 txn prim – Cell-based coincidence reporter assay to measure PMP22 gene transcription in S16 Pmp22-F2sN cells - Primary screen. Potency, µM (doses to about 57.5 µM), without a hit: at the highest dose activity change, negative = inhibition, actives largely listed as inhibitors. S16 Pmp22-F2sN Schwann cells (luciferase reporters placed in the Pmp22 gene), FLuc/NLuc coincidence luminescence, 24 h. hit rate 2% among 43,000; active = clear falling dose curves in both reporters; inconclusive = both reporters move, but less clearly or upward; inactive = either reporter flat; the % is the NLuc reporter signal; also: % is scaled to controls: 0 for no effect and ±100 for the full control effect; some results filed as inactive show a strong effect at the top dose
#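 Transcriptional readout in edited S16(c9) cells: two luciferases reported from the Pmp22 locus, measured in turn after 24 h compound incubation.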
# HTT promoter inh – Primary qHTS for Identification of Small Molecule Inhibitors of Huntingtin Promoter Activity. HEK293 HTT promoter firefly luciferase reporter (activity 0% = vehicle and -100% = no light), 24 h. Potency, µM (doses to about 57.5 µM), for inactives: top-dose activity change, negative = inhibition, most hits filed as inhibitors. hit rate 0.93% among 48,000. AID 1508623, 2021; active = well fitted inhibition curve with a large enough effect; inconclusive = small, poorly fitted or top-dose-only effect; inactive = no such curve, though single readings can be large or run the other way; also: nearly all actives have a fitted effect of over 50% in size
#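 HEK293 Fluc reporter, 2,500 cells/well, 24 h pre-culture; cpds up to 57.5 uM final, 24 h 37 degrees C; Dual-Glo, 10 min RT; normalized vehicle = 0%, zero RLU = -100%.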
# Starred values were filed as active, the others as inactive; ? = inconclusive; · = not tested or not shown; & = joins results of further samples; [ ] = another dose, or the depositor's remark. Potency is read from the fitted curve at half-maximal effect.
# Order of results – HTT promoter inh	PMP22 txn prim
- Cc1cc(C)cc(NC(=O)C2CCN(c3cc(C)nc4c(-c5ccc(Cl)cc5)c(C)nn34)CC2)c1
  ?	1.6%
- O=C(CSc1ncc(S(=O)(=O)c2ccc(Cl)cc2)c(=O)[nH]1)Nc1ccc2c(c1)OCCO2
  -3.4%	-2.1%
- Cc1cc(C)cc(NC(=O)CN2C(=O)c3ccccc3Sc3ccc(C(=O)N4CCOCC4)cc32)c1
  -19.9%	-30.4%
- Cn1c(=O)cc(OCC(=O)NCc2ccc(F)cc2Cl)c2ccccc21
  -18.9%	?
- CCc1ccc(CNCc2c(C(=O)O)n(Cc3ccc(F)cc3Cl)c3cc(OC)ccc23)cc1
  ?	?
- O[C@@H](CNC[C@H](O)[C@H]1CCc2cc(F)ccc2O1)[C@@H]1CCc2cc(F)ccc2O1
  -20.4%&-18.6%	·
- COc1ccc(-c2cc(C(=O)NCc3ccc(C)cc3)c3cc(C(C)C)ccc3n2)cc1
  -19.0%	-21.3%
- COc1ccc(C2c3c(-c4c(C)cc(C)cc4O)n[nH]c3C(=O)N2Cc2ccco2)cc1 (configuration not stated)
  ?	?
- Cc1cccc(C)c1NC(=O)c1ccc2nc(CCc3ccccc3)oc2c1
  ?	0.4%
- Cc1ccc(Nc2cc(C(=O)NC3CCCC3)c3ccccc3n2)c(C)c1
  -6.9%	2.3%
- CC(C)c1ccc(S(=O)(=O)Nc2ccc3oc4c(c3c2)C(=O)CC(C)(C)C4)cc1
  -17.3%	-27.4%
- CC(CCc1ccc2c(c1)OCO2)NN (configuration not stated)
  5.9%	·
- CC(C)(C)c1ccc(C(=O)NCC(c2ccco2)S(=O)(=O)c2ccc(F)cc2)cc1 (configuration not stated)
  ?	15.8µM*
- CN(C)S(=O)(=O)n1cc(/C=C(\NC(=O)c2ccccc2F)C(=O)NCCCn2ccnc2)c2ccccc21
  1.3%	?
- COc1ccc(-c2nc3ccccc3n3c(-c4ccccc4)c4c(=O)n(C)c(=O)n(C)c4c23)cc1
  -6.9%[11.5 µM]	-6.3%

# Molecules listed so far that have a furan ring, fused or not:
# Order of results – HTT promoter inh	PMP22 txn prim
- COc1ccc(C2c3c(-c4c(C)cc(C)cc4O)n[nH]c3C(=O)N2Cc2ccco2)cc1 (configuration not stated)
  ?	?
- CC(C)c1ccc(S(=O)(=O)Nc2ccc3oc4c(c3c2)C(=O)CC(C)(C)C4)cc1
  -17.3%	-27.4%
- CC(C)(C)c1ccc(C(=O)NCC(c2ccco2)S(=O)(=O)c2ccc(F)cc2)cc1 (configuration not stated)
  ?	15.8µM*

# Next part
# Order of results – HTT promoter inh	PMP22 txn prim
- CCOC(=O)c1cc(-c2ccccc2)n(-c2cccc(C(=O)NC(C)(C)C)c2)c1C
  ?	?
- CCc1ccc(CNC(=O)CN(c2ccc(C)cc2)S(=O)(=O)N(C)C)cc1
  -18.8%	9.3%
- COc1cccc(CNC(=O)CSC2=Nc3ccccc3N=C(c3ccc(F)cc3)C2)c1
  -30.4%	?
- CCCC(=O)Nc1nnc(SCc2cc(=O)c3ccc(C)cc3[nH]2)s1
  ?	6.77µM*
- CCc1ccccc1N1CC(c2nc3ccccc3n2CC(C)C)CC1=O (configuration not stated)
  -17.9%	-19.3%
- CCc1ccc(C2CC(=O)c3c([nH]c(C(=O)OCCOc4ccccc4)c3C)C2)cc1 (configuration not stated)
  ?	15µM*
- COc1ccc(-c2csc3nc(-c4ccc(F)cc4)oc(=O)c23)cc1
  1.6%	-23.3%
- COc1cccc(N2CCN(C(=O)c3cc4cc5cc(C)ccc5nc4s3)CC2)c1
  20.3%	-70.2%
- COc1ccc(N2CCN(S(=O)(=O)CCNC(=O)Cc3ccc(Cl)cc3)CC2)cc1
  -13.4%	-5.6%
- O=C(NCCc1c[nH]c2ccccc12)Nc1ccccc1C(F)(F)F
  -14.5%	-14.8%
- COC(=O)c1sc2cccc(F)c2c1S(=O)(=O)N1CCN(c2ccc(F)cc2)CC1
  -6.4%	5.3%
- CCOc1ccccc1Nc1nnc(-c2cc3cc(OC)ccc3oc2=O)s1
  12.1%	?
- CCOc1cc(Br)c(C2C(C(=O)OC)=C(C)NC3=C2C(=O)c2ccccc23)cc1OCC (configuration not stated)
  -32.8%	?
- Cc1cc(C)cc(NC(=O)c2cc(S(=O)(=O)N3CCCCC3)c[nH]2)c1
  -1.5%	-6.2%
- Cc1nc(N2CCCC2)c2c(C(=O)Nc3cccc(Cl)c3C)c(C)oc2n1
  -12.3%	2.2%

# Three compounds already listed, ordered by molar mass, rising.
# Order of results – HTT promoter inh	PMP22 txn prim
- COc1ccc(-c2csc3nc(-c4ccc(F)cc4)oc(=O)c23)cc1
  1.6%	-23.3%
- CCc1ccccc1N1CC(c2nc3ccccc3n2CC(C)C)CC1=O (configuration not stated)
  -17.9%	-19.3%
- COc1cccc(N2CCN(C(=O)c3cc4cc5cc(C)ccc5nc4s3)CC2)c1
  20.3%	-70.2%

# Additional compounds.
# Order of results – HTT promoter inh	PMP22 txn prim
- CCOC(=O)c1c(C)[nH]c(C)c1S(=O)(=O)N1CCC(C(=O)N2CCN(c3cc(C)ccc3C)CC2)CC1
  ?	?
- CCCn1cnc2cc(NC(=O)c3cc(OC)c(OC)c(OC)c3)ccc21
  6.7%	-2.2%
- O=C(CSc1nc(=O)[nH]c2c1CCCC2)Nc1ccc(Cl)c(Cl)c1
  -18.2%	?
- CCCn1cc(S(=O)(=O)c2ccc(C)cc2)c(=O)c2cc(OC)c(OC)cc21
  -20.3%	-10.5%
- Cc1ccc(Cn2c(=O)n(Cc3ccccc3)c(=O)c3c(C)c(C)sc32)cc1
  -13.2%	-5.8%
- O=C(COc1ccccc1)Nc1ccc2nc(SCC(=O)N3CCOCC3)sc2c1
  -19.2%	-21.6%
- Cc1cc(S(=O)(=O)NCCc2csc(-c3cccc(F)c3)n2)ccc1F
  ?	?
- Cc1cc(S(=O)(=O)C(CNC(=O)c2ccc(OC(C)C)cc2)c2cccs2)ccc1F (configuration not stated)
  ?	?
- COc1ccc(C(=O)NCC(c2cccnc2)N2CCc3ccccc3C2)cc1OC (configuration not stated)
  -18.6%	?
- Cc1ccc(C(=O)COC(=O)C(Cc2c[nH]c3ccccc23)NC(=O)c2ccc(Br)cc2)cc1 (configuration not stated)
  -5.1%	-8.6%
- COc1cc(-c2nnc(SCC(=O)Oc3ccccc3Cl)o2)cc(OC)c1OC
  0.0%	-18.8%
- COc1ccc(CCC(=O)NCCc2csc(-c3cccc(C)c3)n2)cc1
  0.8%	4.5%
- COc1ccc(-c2nc3scc(CCNS(=O)(=O)c4ccccc4F)n3n2)cc1
  -24.3%	-33.3%
- Oc1ccc(C2=Cc3ccc(O)cc3OC2)cc1
  ?	·
- CCN(Cc1ccccc1)S(=O)(=O)c1ccc(F)c(C(=O)Nc2cc(C)ccc2OC)c1
  -7.0%	?
- CCOC(=O)c1ccc(N2C(=O)c3n[nH]c(-c4ccco4)c3C2c2ccc(C)cc2)cc1 (configuration not stated)
  ?	?
- COc1cccc(C2C(C(=O)Nc3ccccc3)=C(C)Nc3nnnn32)c1OC (configuration not stated)
  -8.8%	-0.4%
- Cc1ccc(C2=CC(c3c(F)cccc3Cl)n3ncnc3N2)cc1C (configuration not stated)
  -15.4%[11.5 µM]	-0.2%
- COc1ccc(C(=O)N=c2sc3cc(Cl)ccc3n2C)cc1
  11.2%	3.0%
- COc1ccc(CC(=O)NCCS(=O)(=O)N2CCN(c3ccccc3F)CC2)cc1OC
  ?	-6.1%
- COc1cc(O)ccc1-c1nc2ccc(Br)cn2c1Nc1ccccc1C
  ?	?
- CCN1c2ccccc2-c2nc(SCC(=O)NCc3ccccc3)ncc2S1(=O)=O
  -30.7%	?
- Cc1ccc(NC(=O)N2CCN(c3nnc(C)c4c(C)n(-c5ccc(Cl)cc5)nc34)CC2)c(C)c1
  -6.1%	-4.8%
- O=C(COC(=O)CCCC1=NS(=O)(=O)c2ccccc2N1)Nc1ccc(Br)cc1
  -9.7%	5.1%
- Cc1ccccc1NC(=O)CSc1c(C(C)C)cnc2c1c(=O)n(C)c(=O)n2C
  -9.7%	-15.6%
- CN1C(C(=O)Nc2cccc(O)c2)=CC(c2ccco2)=NS1(=O)=O
  -24.8%	3.4%
- CC(C)Oc1ccc(CNC(=O)c2cnc3sc(N4CCCC4)nn3c2=O)cc1
  9.9%	-1.3%
- CCOc1cccc2cc(-c3nc4sc(C(=O)Nc5ccc(C)cc5)c(C)c4c(=O)[nH]3)c(=O)oc12
  -11.8%	-2.7%
- Nc1nnc(SCC(=O)Nc2cccc(F)c2)s1
  5.8%	-3.1%
- CCOc1ccc(N2CC(NC(=O)C(=O)c3c[nH]c4ccccc34)CC2=O)cc1 (configuration not stated)
  -9.8%	8.5%
- COCCNC(=O)c1c(NC(=O)c2cc(=O)c3cc(Cl)ccc3o2)sc2c1CCCC2
  2.7%	-11.7%
- C=C(C)Cn1c(=O)c2c(nc3n2CCN3c2ccc(F)cc2)n(C)c1=O
  4.6%	-9.0%
- Clc1ccccc1CNc1ncnc2c1nc1n2CCCC1
  -18.7%	-17.1%
- CC(C)C1CCC(C(=O)N[C@H](Cc2ccccc2)C(=O)O)CC1 (some centres not stated)
  -11.0%&7.1%	·
- CCCOc1cccc(C(=O)N2CCCCC2CCN2CCCCC2)c1 (configuration not stated)
  -4.7%	-22.2%
- CCCS(=O)(=O)N1CC(=O)N(c2ccc(Cl)cc2C)C(C)(C(=O)NC2CCCC2)C1 (configuration not stated)
  -8.6%	-4.8%
- CCOc1ccccc1N(C)C(=O)Cn1nc(Cc2cccnc2)c2ccccc2c1=O
  -10.6%	-19.2%
- Cc1cccc(-n2ncc3c(NC4CCCC4)ncnc32)c1
  3.9%	?
- Cc1ccc(C)c(CSc2nc3c([nH]c4ccccc43)c(=O)n2C)c1
  0.0%	-31.6%
- Cc1ccc(CNC(=O)c2cc(S(=O)(=O)N3CCCCC3)cn2C)cc1
  -33.0%	-13.2%
- Cc1cccc(N2CCN(C(=O)c3cn(C4CCCCC4)c(=O)c4c3c3ccccc3n4C)CC2)c1C
  -27.8%	?
- CCOC(=O)C1CCN(C(=O)c2nn(-c3ccc(C)cc3)c(=O)c3c2c2ccccc2n3C)CC1
  -11.2%	-5.3%
- CCSc1nc2c([nH]c3ccccc32)c(=O)n1-c1cccc(OC)c1
  ?	?
- COc1ccc(CC(=O)NC2CC(=O)N(c3cccc(F)c3)C2)cc1OC (configuration not stated)
  -5.7%	-0.5%
- CCCCCC(C)N (configuration not stated)
  8.6%	·
- Cc1ccc(-c2nc3sc(CCNS(=O)(=O)c4cc(F)ccc4F)c(C)n3n2)cc1
  ?	?
- CCOc1ccc(NC(=O)c2cnn3c2NC(c2cccc(OC)c2)=CC3c2ccccc2)cc1 (configuration not stated)
  ?	?
- COc1ccccc1NC(=O)CN1C(=O)CSc2ccc(S(=O)(=O)N3CCCC3)cc21
  -9.8%	-30.6%
- CCCNC(=O)c1ccc2c(c1)N=C(C)c1c(C)ccc(C)c1S2
  ?	0.392µM*
- COc1ccccc1CNC(=O)C(C)n1c(=O)cc(-c2ccccc2)c2c(C)nn(C)c21 (configuration not stated)
  ?	0.8%
- COc1ccc(CNC(=O)C2CCN(c3nnc(-n4c(C)ccc4C)s3)CC2)c(OC)c1
  -14.0%	?
- Cc1ccccc1Nc1ncnc2c1c(-c1ccccc1)cn2-c1ccc(F)cc1
  -24.0%	-9.1%
- Cc1ccc2nc(COc3ccc(NC(=O)COc4ccccc4F)cc3)cc(=O)n2c1
  3.5%	-12.1%
- COc1ccccc1NC(=O)C1=C(C)Nc2nc(CCCO)nn2C1c1cccc(O)c1 (configuration not stated)
  -18.5%	2.5%
- Cc1ccc(NC(=O)CCN2CCN(CCO)CC2)cc1C
  -6.5%	10.0%
- COc1cc(OC)c(NC(=O)CC(c2cccs2)N2Cc3ccccc3C2=O)cc1Cl (configuration not stated)
  -30.0%	?
- CCCCNC(=O)C1CCC(CNS(=O)(=O)c2ccc(C)cc2)CC1 (configuration not stated)
  -5.3%	-10.9%
- CCOC(=O)c1c(NC(=O)CSc2cn(CCNC(=O)c3ccc(OCC)cc3)c3ccccc23)sc2c1CCC2
  ?	-16.8%
- Cc1cccc(N2CCN(C(=O)c3ccc4c(c3)N(Cc3ccccc3F)C(=O)c3ccccc3S4=O)CC2C)c1 (configuration not stated)
  ?	9.04µM*
- CC(Oc1ccc(Br)cc1)C(=O)N(Cc1nc(-c2ccccc2)no1)C(C)C (configuration not stated)
  ?	?
- CCOC(=O)c1cccc(NC(=O)c2cnn(-c3ccccc3)c2-n2cccc2)c1
  -24.6%	?
- CCC1CCCCN1CCCNC(=O)c1ccc2c(c1)N(Cc1cccc(C)c1)C(=O)c1ccccc1S2(=O)=O (configuration not stated)
  -17.3%	?
- CCN1C(=O)c2ccccc2S(=O)c2ccc(C(=O)NCc3ccccc3OC)cc21 (configuration not stated)
  -17.6%	?

# Screening data deposited in PubChem BioAssay by National Center for Advancing Translational Sciences (NCATS).

# A portion of the library. The share of hits here may be higher or lower than overall.
